HTT promoter inh = Primary qHTS for Identification of Small Molecule Inhibitors of Huntingtin Promoter Activity; 0.93% of 48,000 active; Potency, µM (highest dose often 57.5 µM), for the others: top-dose activity change, negative = inhibition, usual class: inhibitors; HEK293 HTT promoter firefly luciferase reporter (activity 0% = vehicle and -100% = no light), 24 h; AID 1508623, 2021; active = well fitted inhibition curve with a large enough effect; inconclusive = small, poorly fitted or top-dose-only effect; inactive = no such curve, though single readings can be large or run the other way; note: nearly all actives have a fitted effect of over 50% in size
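HEK293 cells carrying firefly luciferase reporters were seeded at 2,500 per well in Opti-MEM and cultured for 24 h. They were then treated with compounds at up to 57.5 uM final for 24 h at 37 degrees C before Dual-Glo luminescence readout.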
PMP22 txn = Cell-based coincidence reporter assay to measure PMP22 gene transcription in S16 Pmp22-F2sN cells - Primary screen; Potency, µM (series often up to 57.5 µM), for the others: at the top dose activity change, negative = inhibition, usual class: inhibitors; S16 Pmp22-F2sN Schwann cells (luciferase reporters placed in the Pmp22 gene), FLuc/NLuc coincidence luminescence, 24 h; 2% of 43,000 active; AID 1508649, 2021; active = clear falling dose curves in both reporters; inconclusive = both reporters move, but less clearly or upward; inactive = either reporter flat; the % is the NLuc reporter signal; note: % is set by controls: 0 for no effect and ±100 for the full control effect; some results filed as inactive show a strong effect at the top dose
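qHTS, 1536-well. Cells seeded, compounds added by pin tool, 24 h 37C. Nano-Glo reagent 1 (lysis/FLuc), 10 min RT, read; Stop&Glo, 10 min RT, read NLuc.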
The depositor's hits bear a star; [ ] = dose if it differs, or a comment. Potency is the fitted concentration of half-maximal effect.

`CCOC(=O)N1CCc2c(sc3c2c(=O)n(-c2ccc(Cl)cc2)c(=O)n3CC(=O)c2ccc(F)cc2)C1` gave HTT promoter inh -8% and PMP22 txn -23%.
`CCOc1ccccc1NC(=O)CN1C(=O)COc2ccc(S(=O)(=O)NC3CCCC3)cc21` gave HTT promoter inh -21% and PMP22 txn -21%.
Screening COc1ccccc1Nc1c2c(nc3ccc(NC(=O)c4ccc(N(C)C)cc4)cc13)CCCC2 returned HTT promoter inh inconclusive and PMP22 txn inconclusive.
Cc1ccc(NC(=O)CCS(=O)(=O)c2cc(Br)cc3c2N(C(=O)C2CC2)CC3)cc1 was read as HTT promoter inh -9% and PMP22 txn -4%.
Cc1ccc(C)c(S(=O)(=O)c2nnn3c2nc(NC(C)C)c2sccc23)c1 was read as HTT promoter inh inconclusive and PMP22 txn inconclusive.
For COc1ccccc1N1CCN(c2ncnc3c2cnn3-c2ccc(C)cc2)CC1 the results were HTT promoter inh inconclusive and PMP22 txn -1%.
Screening CC(C)COC(=O)/C(C#N)=C\c1ccc(-c2ccccc2Cl)o1 returned HTT promoter inh inconclusive and PMP22 txn -1%.
For COc1ccc(NC(=O)Cn2c(=O)oc3ccccc32)cc1 the results were HTT promoter inh -2% and PMP22 txn -44%.
`Cc1ccc(Sc2c(C)nn(C(=O)COc3ccccc3)c2C)cc1` gave HTT promoter inh -18% and PMP22 txn -12%.
`CCN(CC)S(=O)(=O)c1ccc2nc(NC(=O)c3cccnc3)sc2c1` gave HTT promoter inh -22% and PMP22 txn -15%.
Screening N#CC(=C(N)Sc1ccc(N)cc1)c1ccccc1C(F)(F)F returned HTT promoter inh -4%.
`Cc1ccc(C)c(NC(=O)c2cnc3sc(N4CCOCC4)nn3c2=O)c1` gave HTT promoter inh 10% and PMP22 txn -4%.
For Cc1ccccc1C(=O)N(Cc1ccc(N(C)C)cc1)Cc1ccco1 the results were HTT promoter inh -22% and PMP22 txn inconclusive.
Screening CC1=C(c2ccc(Cl)cc2)S(=O)(=O)NC1=NCCCN1CCN(c2cc(C)ccc2C)CC1 returned HTT promoter inh -20% and PMP22 txn inconclusive.
Screening COc1cccc2sc(N(Cc3cccnc3)C(=O)c3ccco3)nc12 returned HTT promoter inh -18% and PMP22 txn inconclusive.
`CCc1ccc(NC(=O)Cc2csc(COc3cccc(C)c3)n2)cc1` gave HTT promoter inh -24% and PMP22 txn 2%.
For Cc1ccc(C(=O)CC2(O)C(=O)N(Cc3ccccc3)c3ccccc32)c(C)c1 (stereo not drawn) the results were HTT promoter inh inconclusive and PMP22 txn -27%.
Screening COc1ccc(CC(=O)NCC(c2cccs2)S(=O)(=O)c2ccc(F)c(C)c2)cc1 (stereo not drawn) returned HTT promoter inh -7% and PMP22 txn -10%.
`Cc1noc2ncnc(N3CCCC(C(=O)NC(C)C)C3)c12` (stereo not drawn) gave HTT promoter inh -17% and PMP22 txn -5%.
`Cc1nc2n(c(=O)c1CCN1CCC(c3noc4cc(F)ccc34)CC1)CCC[C@H]2O` gave HTT promoter inh 4%[25.2 µM].
For CCN(CC)S(=O)(=O)c1ccc2c(c1)c(=O)c(C(=O)N1CCN(c3cccc(Cl)c3)CC1)cn2C the results were HTT promoter inh -5% and PMP22 txn inconclusive.
O=C(CSc1nc(Nc2ccc(F)c(F)c2)c2ccccc2n1)c1ccc(Cl)cc1 was read as HTT promoter inh -10% and PMP22 txn inconclusive.
`CCOc1ccc(-c2cc(C(=O)N3CCN(c4cccc(C(F)(F)F)c4)CC3)c3ccccc3n2)cc1` gave HTT promoter inh -2% and PMP22 txn -81%.
COCCCn1c(SCC(=O)NCc2ccccc2)nc2c(sc3ccccc32)c1=O was read as HTT promoter inh -4% and PMP22 txn -10%.
`COc1ccccc1NC(=O)CN1C(=O)C(c2ccc(F)cc2)=NC12CCCCC2` gave HTT promoter inh inconclusive and PMP22 txn -8%.
`CCc1nc2ccc(C(=O)N3CCN(c4ccc(Cl)cc4)CC3)cc2nc1CC` gave HTT promoter inh -14% and PMP22 txn -21%.
Screening Cn1cc(C(=O)NCc2ccc(F)cc2)c(=O)c2cc(S(=O)(=O)N3CCCCC3)ccc21 returned HTT promoter inh -19%[11.5 µM] and PMP22 txn -13%.
Screening Cc1ccc(N2CCn3c2nc2c3c(=O)n(Cc3cccc(Cl)c3)c(=O)n2C)cc1C returned HTT promoter inh -3% and PMP22 txn -16%.
For Cc1cccc(N2CCN(S(=O)(=O)c3ccc4c(c3)CCCN4C(=O)C3CCC3)CC2)c1C the results were HTT promoter inh inconclusive and PMP22 txn 16µM*.
Screening CSc1ccc(CCNC(=O)Cn2ccc3cc(S(=O)(=O)N4CCCCCC4)ccc32)cc1 returned HTT promoter inh inconclusive and PMP22 txn inconclusive.
`CCOC(=O)c1ccc(NC(=O)CCn2c(=O)c3cccn3c3cccnc32)cc1` gave HTT promoter inh -7% and PMP22 txn inconclusive.
`COc1cccc(N=C2SC(C(=O)Nc3cccc(Cl)c3)CC(=O)N2C)c1` (stereo not drawn) gave HTT promoter inh -22% and PMP22 txn -23%.
For Cc1cccc(C)c1-n1ncc(C(=O)NCCCN2CCC(C)CC2)c1C1CCN(C(=O)OC(C)(C)C)CC1 the results were HTT promoter inh -19% and PMP22 txn -27%.
Screening Cc1ccc(Cl)cc1N(C)C(=O)c1cc2ccc3cccnc3c2[nH]1 returned HTT promoter inh 4% and PMP22 txn -35%.
Cc1ccc(-c2nn(-c3ccc(F)cc3)c3c2cnc2cc(F)c(F)cc23)cc1 was read as HTT promoter inh -14% and PMP22 txn 1%.
`CC(C)c1cnc2c(c1SCc1cccc(C(F)(F)F)c1)c(=O)n(C)c(=O)n2C` gave HTT promoter inh -1% and PMP22 txn -8%.
Screening CC(C)c1ccc(OCC(=O)NCCS(=O)(=O)N2CCN(c3ccc(F)cc3)CC2)cc1 returned HTT promoter inh -16% and PMP22 txn 1%.
`O=C(NCCN1CCCCC1)c1ccc(Cn2c(SCc3cccc(F)c3)nc3cccnc32)cc1` gave HTT promoter inh -8% and PMP22 txn inconclusive.
Cc1cccn2c(=O)cc(COc3cccc(NC(=O)COc4ccc(F)cc4)c3)nc12 was read as HTT promoter inh 5% and PMP22 txn inconclusive.
Screening Cn1c(=O)n(CCc2ccccc2)c(=O)c2c1nc1n2CCN1c1ccc(Cl)cc1 returned HTT promoter inh -2% and PMP22 txn 12%.
CCC(=O)N1c2ccccc2CC1C(=O)NCc1ccc(OC(C)C)cc1 (stereo not drawn) was read as HTT promoter inh inconclusive and PMP22 txn -8%.
Screening COc1ccc2oc(=O)c(-c3cn4c(n3)sc3cc(OC)ccc34)cc2c1 returned HTT promoter inh -5% and PMP22 txn -20%.
Cc1ccc2oc(=O)n(CCNC(=O)Nc3ccccc3C)c2c1 was read as HTT promoter inh -7% and PMP22 txn -30%.
Screening O=C1N(Cc2cccc(C(F)(F)F)c2)c2ccccc2S(=O)(=O)N1c1cccc(Cl)c1 returned HTT promoter inh inconclusive and PMP22 txn inconclusive.
Screening COc1ccc(C2C=C(c3ccccc3)Nc3nc(NC(C)=O)nn32)cc1 (stereo not drawn) returned HTT promoter inh -11% and PMP22 txn 4%.
For Cc1ccc(NC(=O)c2oc3ccc(S(=O)(=O)N4CCC5(CC4)OCCO5)cc3c2C)cc1Cl the results were HTT promoter inh -12% and PMP22 txn -18%.
`Cc1ccc(Cl)cc1N1CCN(C(=O)c2noc3c2CCCC3)CC1` gave HTT promoter inh inconclusive and PMP22 txn -30%.
Screening COc1cccc(NC(=O)Cn2c(=O)n(-c3ccc(Cl)cc3)c(=O)c3sc4ccccc4c32)c1 returned HTT promoter inh -13% and PMP22 txn inconclusive.
`CCOC(=O)c1ccc(NC(=O)c2c(NCc3cccs3)sc3c2CCCC3)cc1` gave HTT promoter inh -31% and PMP22 txn inconclusive.
CSc1ccc(Cn2nnc(C(=O)Nc3ccc(C)cc3Cl)c2N)cc1 was read as HTT promoter inh 4% and PMP22 txn -26%.
For CCOc1ccc(S(=O)(=O)NCCc2sc(-c3ccc(C)cc3)nc2C)cc1 the results were HTT promoter inh inconclusive and PMP22 txn -52%.
`Cc1ccc(-c2nc3ncccc3o2)cc1NC(=O)c1ccccc1Br` gave HTT promoter inh 7% and PMP22 txn -60%.
For CCOc1cc(C(=O)Nc2cc3c(cc2N2CCOCC2)n(C)c(=O)n3C)cc(OCC)c1OCC the results were HTT promoter inh -1% and PMP22 txn -26%.
For O=c1c2cnn(-c3ccc(F)cc3)c2ncn1Cc1ccc(F)cc1 the results were HTT promoter inh -30% and PMP22 txn 8%.
For CCCCSCCCNC(=O)C1CCC(CNS(=O)(=O)c2c(C)cc(C)cc2C)CC1 (stereo not drawn) the results were HTT promoter inh -5% and PMP22 txn -8%.
`CCn1cc(C(=O)N(C)Cc2ccccc2)c(=O)c2cc(S(=O)(=O)N3CCCCCC3)ccc21` gave HTT promoter inh -2% and PMP22 txn 0%.
COc1ccc(-c2nc3ccc(NS(=O)(=O)c4ccc(Cl)cc4)cc3o2)cc1 was read as HTT promoter inh -20% and PMP22 txn 17%.
For Cc1ccc(C)c(NC(=O)CN2C(=O)C(C)(C)c3ccccc32)c1 the results were HTT promoter inh -11% and PMP22 txn -3%.
Screening Cc1ccc(C(=O)Nc2cc3c(cc2C)n(C)c(=O)c(=O)n3C)cc1 returned HTT promoter inh 4% and PMP22 txn -1%.
O=C(NCc1ccccc1Cl)C1CCC(CNS(=O)(=O)c2ccc(Cl)cc2)CC1 (stereo not drawn) was read as HTT promoter inh -4% and PMP22 txn -41%.
`Cc1ccc(OCCSc2nc3ccccc3n2CCC(=O)O)cc1` gave HTT promoter inh 2% and PMP22 txn 9%.
C=Cc1ccc(Cn2c(C(=O)O)c(CNCc3ccccc3)c3ccc(OC)cc32)cc1 was read as HTT promoter inh inconclusive and PMP22 txn inconclusive.
CCOc1ccc(NC(=O)CSC2=Nc3ccccc3C3=NC(CCC(=O)NCc4ccccc4)C(=O)N23)cc1 (stereo not drawn) was read as HTT promoter inh -11% and PMP22 txn inconclusive.
For COc1ccc(-c2nc(S(=O)(=O)c3ccc(C)cc3)c(N3CCCCC3)o2)cc1 the results were HTT promoter inh 2% and PMP22 txn -21%.
For CCOC(=O)c1[nH]c2c(c1Cc1ccccc1)C(=O)CC(c1ccc(OC)cc1)C2 (stereo not drawn) the results were HTT promoter inh inconclusive and PMP22 txn -20%.
`Cc1ccccc1CN1C(=O)c2ccccc2S(=O)c2ccc(C(=O)N3CCOCC3)cc21` (stereo not drawn) gave HTT promoter inh -15% and PMP22 txn -26%.
For COc1ccc(-c2cc(C(F)(F)F)nc(SCC(=O)NCc3ccc(F)cc3)n2)cc1 the results were HTT promoter inh 0% and PMP22 txn inconclusive.
Cc1ccc(CCNC(=O)c2cn(C)c3ccc(S(=O)(=O)N4CCCCC4)cc3c2=O)cc1 was read as HTT promoter inh -4% and PMP22 txn 1%.
Screening COc1cc(OC)c(NS(=O)(=O)c2cc3c(cc2C)NC(=O)CO3)cc1Cl returned HTT promoter inh inconclusive and PMP22 txn 6%.
For Cc1ccc(Cl)cc1-n1ncc2c(NCCCn3ccnc3)ncnc21 the results were HTT promoter inh inconclusive and PMP22 txn inconclusive.
Screening CCCn1ccc2c(OCC(=O)Nc3cc(C)ccc3C)cccc2c1=O returned HTT promoter inh inconclusive and PMP22 txn inconclusive.
`CCOc1cc(CNC(=O)C2COc3ccccc3C2)cc(OCC)c1OCC` (stereo not drawn) gave HTT promoter inh -23% and PMP22 txn inconclusive.

Arranged by heavy-atom count (low to high): some entries from above.
Cc1ccc(-c2nn(-c3ccc(F)cc3)c3c2cnc2cc(F)c(F)cc23)cc1 was read as HTT promoter inh -14% and PMP22 txn 1%.
Screening Cn1c(=O)n(CCc2ccccc2)c(=O)c2c1nc1n2CCN1c1ccc(Cl)cc1 returned HTT promoter inh -2% and PMP22 txn 12%.
C=Cc1ccc(Cn2c(C(=O)O)c(CNCc3ccccc3)c3ccc(OC)cc32)cc1 was read as HTT promoter inh inconclusive and PMP22 txn inconclusive.

In the list so far, these have an aryl thioether with sulfur outside any ring.
`Cc1ccc(Sc2c(C)nn(C(=O)COc3ccccc3)c2C)cc1` gave HTT promoter inh -18% and PMP22 txn -12%.
Screening N#CC(=C(N)Sc1ccc(N)cc1)c1ccccc1C(F)(F)F returned HTT promoter inh -4%.
O=C(CSc1nc(Nc2ccc(F)c(F)c2)c2ccccc2n1)c1ccc(Cl)cc1 was read as HTT promoter inh -10% and PMP22 txn inconclusive.
COCCCn1c(SCC(=O)NCc2ccccc2)nc2c(sc3ccccc32)c1=O was read as HTT promoter inh -4% and PMP22 txn -10%.
Screening CSc1ccc(CCNC(=O)Cn2ccc3cc(S(=O)(=O)N4CCCCCC4)ccc32)cc1 returned HTT promoter inh inconclusive and PMP22 txn inconclusive.
`CC(C)c1cnc2c(c1SCc1cccc(C(F)(F)F)c1)c(=O)n(C)c(=O)n2C` gave HTT promoter inh -1% and PMP22 txn -8%.
`O=C(NCCN1CCCCC1)c1ccc(Cn2c(SCc3cccc(F)c3)nc3cccnc32)cc1` gave HTT promoter inh -8% and PMP22 txn inconclusive.
CSc1ccc(Cn2nnc(C(=O)Nc3ccc(C)cc3Cl)c2N)cc1 was read as HTT promoter inh 4% and PMP22 txn -26%.
`Cc1ccc(OCCSc2nc3ccccc3n2CCC(=O)O)cc1` gave HTT promoter inh 2% and PMP22 txn 9%.
For COc1ccc(-c2cc(C(F)(F)F)nc(SCC(=O)NCc3ccc(F)cc3)n2)cc1 the results were HTT promoter inh 0% and PMP22 txn inconclusive.
